BJeLR viability = kills HRASV12-expressing BJeLR cells; BJeLR (HRASV12) viability, CellTiter-Glo ATP luminescence, 48 h; reference of the scale not given here; inhibition, % (test concentration not listed); 0.17% of 300,000 active;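 active = replicate mean above 50%; inconclusive = above 50% but judged a plate artefact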;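 also: 50 nL library stock added to about 25 µL; numbers are from one replicate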
RN4220 kill = kills Staphylococcus aureus RN4220; S. aureus RN4220 growth, OD600, 16 h; inhibition, % (test concentration not listed); 0.33% of 330,000 active;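 active = z-score of -3 or lower and OD600 up to 0.18 on both plates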;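 also: plate controls were untreated cells for no effect and reference antibiotic for full effect; stock transfer was 100 nL into about 80 µL; one replicate is shown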
Sa ugtP lethal = compounds lethal to S. aureus RN4220 ugtP deletion mutant. OD600 growth, 16 h; some inactives read as strong as hits. 0.54% of 330,000 active. growth inhibition, % (test concentration not listed);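 active = z-score under -3 and OD600 up to 0.15 on both plates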;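 also: plate controls were untreated wells for no effect and antibiotic for full effect; wells of about 80 µL received 100 nL stock; the first replicate is given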
Autofluor counter = compound fluorescence in toxin protease inhibitor counterscreen; compound autofluorescence counterscreen, microsphere flow cytometry; hits give high values; fluorescence intensity (concentration not given with the values); 3.1% of 360,000 active; AID 624483;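 active = at least 3 SD above the mean of all compounds, about 16000 in these data; inconclusive = too few beads counted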;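 also: 100 nL of 1 mM stock went into each well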
PrP UTR inh = suppresses PrP 5' UTR mRNA reporter expression; cell-based PrP 5' UTR mRNA reporter, plate reader; inhibition, % (concentration not given with the values); 0.35% of 340,000 active;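 active = every replicate at 50% or more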;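 also: 0 = median of the neutral control wells; tested in H4 reporter cells; numbers are from one replicate; inactives centre near -14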
Mtb hypoxia rep = Mtb hypoxia fluorescent reporter inhibition. fluorescence inhibition, % (concentration not given with the values). 0.1% of 300,000 active. AID 1159583. M. tuberculosis hypoxia-regulated fluorescent reporter, fluorescence;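 active = 35 to 45% if threefold the growth effect, above 45% if 1.5-fold the growth effect; inactive = the rest, general growth blockers included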;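 also: wells of about 50 µL received 100 nL stock; 0% = vehicle wells and 100% = reference inhibitor wells; whole bacteria with a GFP reporter of the hypoxia response; strong numbers were not always called active; many hits fall short of the cut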
Mtb hypoxia rep growth = second read-out of Mtb hypoxia rep, no call of its own (marks repeat the call); growth inhibition, %; measured here: M. tuberculosis growth (absorbance);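 0% = vehicle and 100% = reference antibiotic; read after six days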
An asterisk follows results filed as active; ? = inconclusive; nt = not tested or not shown.

molecule,BJeLR viability,PrP UTR inh,Autofluor counter,Sa ugtP lethal,RN4220 kill,Mtb hypoxia rep growth,Mtb hypoxia rep
O=C(Nc1cccc(Br)c1)c1cccc(OC(=S)N2CCOCC2)c1,5.1,-18.9,5663,nt,nt,nt,nt
Cc1cccc(-c2nnc(SCc3ccccc3)o2)c1,-7.5,-55.8,4264,6.0,4.9,9.7,5.9
CCC(C)(C)c1ccc(OCCCC[n+]2cccc(C)c2)c(C(C)(C)CC)c1,3.4,-12.9,1918,nt,nt,nt,nt
CCOc1ccc(-c2nnc3ccc(SCC(=O)Nc4cc(C)on4)nn23)cc1,-10.9,-18.4,3011,5.0,2.4,1.1,1.5
Cc1ccc(C)c(OCCn2c(=O)c3c(ncn3C3CCCC3)n(Cc3ccccc3)c2=O)c1,nt,-12.4,2262,-5.6,-6.0,-1.7,-3.5
Cc1nc2ccc(N)nc2nc1C,nt,-25.5,3490,5.7,5.6,8.4,8.3
Cc1ccc(NC(=O)CCC(=O)OC(C(=O)c2ccc(C)c(C)c2)c2ccccc2)c(C)c1 (stereo not drawn),0.5,-5.2,8350,-4.4,0.4,15.1,6.5
O=C(CSc1nnc(-c2cccnc2)n1-c1ccccc1)N1CCN(c2ccc(F)cc2)CC1,3.5,-19.4,5515,-7.7,2.2,nt,nt
COc1cc(N)c(Cl)cc1C(=O)OCC(=O)N1c2ccccc2NC(=O)C1(C)C,nt,-17.4,4301,1.8,5.2,8.4,6.5
Cc1ccccc1OCCn1cc(/C=C(\C#N)C(=O)NCc2ccco2)c2ccccc21,6.1,-9.1,2136,6.2,2.8,-1.2,2.4
Cc1cccc(C)c1NC(=O)c1cccc(COc2cc(Cl)ccc2Cl)c1,-12.7,-2.9,1903,0.9,13.9,2.6,-6.9
COc1ccc(CNC(=O)[C@@H]2CC=C[C@@H]3CCN(Cc4ccc(Cl)c(Cl)c4)C(=O)[C@@H]32)cc1,-2.1,-8.9,3968,nt,nt,nt,nt
CCNC(=O)CC1SC(=Nc2ccc(C)cc2)NC1=O (stereo not drawn),4.3,-7.3,2562,4.8,1.8,5.2,9.2
Cc1onc(-c2ccccc2)c1CNS(=O)(=O)c1ccc(F)cc1F,-10.0,-13.1,4329,-3.0,6.2,3.5,9.6
Cc1ccc(NC(=O)c2ccc3c(c2)OCCO3)nc1,23.4,26.8,?,3.0,3.7,8.3,5.6
CCOC(=O)c1sc(NC(=O)C2CSC3(C)CCC(=O)N23)nc1C (stereo not drawn),nt,-14.9,6400,4.0,1.7,2.8,6.6
COc1ccc(C=c2sc3nc(=O)c(C)nn3c2=O)c(OC)c1,nt,nt,nt,8.6,3.6,6.3,5.7
O=C1c2ccsc2SCCN1Cc1c(Cl)cccc1Cl,-1.4,-40.0,2728,5.4,13.0,nt,nt
Cc1ccc(CNC(=O)C2CCC(=O)N(CCc3cccc(F)c3)C2)cc1 (stereo not drawn),-6.4,-26.0,5909,6.8,8.1,-1.0,4.4
COC(=O)COc1cc(=O)oc2ccc(NS(=O)(=O)c3ccccc3)cc12,-1.1,-18.2,3725,17.7,4.9,2.3,-13.1
Cc1ccc(NC(=S)NC2CCN(Cc3ccccc3)CC2)cc1,-4.5,-8.4,2075,-0.4,-0.1,-6.2,-3.1
Cc1cc(C)c(S(=O)(=O)N2CCCOC2CNC(=O)C(=O)NCc2cccs2)c(C)c1 (stereo not drawn),-0.1,-14.9,2378,-1.1,6.3,10.4,1.7
CC(C)CNC(=O)c1oc2ccccc2c1COc1ccccc1,2.6,-19.5,2473,4.5,-8.3,-2.3,-2.9
CCOC(=O)c1[nH]c(C)c(C(=O)OCC(=O)N(CC)C2CCS(=O)(=O)C2)c1C (stereo not drawn),-3.0,-10.9,4749,6.9,-0.9,nt,nt
COc1ccccc1-c1nnc(SCC(=O)OC(C)C)o1,6.6,-5.2,11305,4.6,1.0,8.7,11.8
CC(=O)CC1OC(=O)C(Br)=C1NCc1ccccc1 (stereo not drawn),-1.7,-13.5,8063,-9.4,-2.7,7.4,-4.3
CCOc1ccc(NC(=O)CSc2nccn2Cc2ccco2)cc1,0.2,-19.8,6149,3.8,2.7,13.6,1.0
CC(C)OC(=O)c1cccc(NC(=O)c2ccccc2)c1,3.3,-45.4,4747,-3.2,15.0,13.9,13.7
COc1ccccc1-c1ccc(SCC(=O)N2CCOCC2)nn1,3.3,-94.1,5346,nt,nt,nt,nt
CCN(CCCNC(=O)C1CCCN(S(=O)(=O)CC)C1)c1cccc(C)c1 (stereo not drawn),-5.5,-2.6,2411,17.1,16.2,5.2,10.8
Cc1ccc(S(C)(=O)=O)cc1C(=O)OCC(=O)N1CCCC1=O,nt,-19.6,6274,2.5,2.9,3.9,3.5
O=C(NN=Cc1cc(Br)c(Br)s1)c1ccncc1,nt,nt,nt,-4.6,-5.1,3.7,-12.2
COc1cccc(-n2nnc3c(=O)n(CC(=O)N4CCC(Cc5ccccc5)CC4)cnc32)c1,3.1,-12.8,24394*,5.0,3.1,-0.5,-0.3
Cc1ccc(S(=O)(=O)N2CCCCC2C(=O)NCc2ccco2)cc1 (stereo not drawn),12.0,-24.8,4340,-9.0,-8.9,nt,nt
CN(C)c1cccc2c(S(=O)(=O)Nc3ccccn3)cccc12,-2.7,-7.5,4994,-0.8,2.0,nt,nt
O=C(N/N=C/c1ccc(F)cc1)c1cc(-c2ccco2)nc2ccccc12,-8.5,-16.4,3316,nt,nt,nt,nt
CCc1nnc(NC(=O)CCC(=O)NC2CCCCCCC2)s1,-1.8,-13.9,6871,5.2,3.9,-2.2,1.1
CCCC(=O)NC(Oc1ccc(C(C)=O)cc1)C(Cl)(Cl)Cl (stereo not drawn),1.9,-28.4,4116,-0.9,3.6,8.2,3.2
Fc1ccccc1NC(=S)NN=Cc1ccccc1Br,nt,nt,nt,73.2,1.6,3.4,1.5
Cc1ccc(S(=O)(=O)NCCc2cc3ccc(C)cc3[nH]c2=O)cc1,-3.2,5.9,3807,-0.6,6.6,5.1,1.2
CC(=O)NC(Cc1ccc(N(CCCl)CCCl)cc1)C(=O)NCC(=O)NCC(=O)O (stereo not drawn),6.5,-6.1,4984,5.7,1.2,4.8,17.2
Cc1ccc(CS(=O)(=O)CC(C)(O)c2ccc(Cl)cc2)cc1 (stereo not drawn),-0.7,-16.7,2952,2.7,3.3,0.8,2.7
CCOC(=O)CN1C(=O)C(Sc2n[nH]c(-c3ccc(O)cc3)n2)CCc2ccccc21 (stereo not drawn),4.5,-9.4,4545,-2.7,-0.2,nt,nt
O=C(O)C1Cc2c([nH]c3ccccc23)C(c2ccc3c(c2)OCO3)N1 (stereo not drawn),-6.1,-14.4,15698,-12.8,4.1,13.9,0.8
COC(=O)C1=C(C(=O)OC)C2N(C)c3ccccc3[C@@]23CC(C(=O)OC)N(C(C)=O)C3=N1 (stereo partly drawn),nt,nt,nt,3.8,4.6,0.0,-0.3
O=C(O)CC1(CC(=O)Nc2ccc3ccccc3n2)CCCCC1,-12.6,-1.0,4561,4.3,7.9,-1.5,8.0
O=C1C(=O)N(CCO)C(c2ccc(Br)cc2)/C1=C(\O)c1ccccc1 (stereo not drawn),-2.0,4.9,nt,0.1,4.3,-11.1,-7.4
COc1ccc(Br)cc1CN(C)CC(=O)Nc1cccc(S(N)(=O)=O)c1,-1.8,-21.2,4062,2.8,2.0,-7.4,-1.5
COC(=O)c1ccccc1NC(=O)C(=O)NCC1CCCO1 (stereo not drawn),-0.8,-34.4,2156,-2.9,2.3,0.1,4.0
CCOC1OC(=O)C(Cl)=C1Nc1cc(C)ccc1C (stereo not drawn),1.7,-11.0,2626,3.1,7.3,1.3,6.8
Cc1ccc(C)c(S(=O)(=O)N2CCN(c3ncnc4sccc34)CC2)c1,nt,15.7,3892,-6.3,8.6,-2.1,-4.2
COc1ccc(S(=O)(=O)N2CCC(C(=O)Nc3ccccc3C)CC2)c2cccnc12,6.2,-36.0,5263,-4.0,0.2,14.5,-0.9
COc1ccccc1/C=C/C(=O)OCC(=O)NC1CCS(=O)(=O)C1 (stereo not drawn),nt,4.8,3728,2.8,3.6,3.4,3.7
CCn1cc(C(=O)OCc2cccc(Br)c2)c(=O)c2ccc(C)nc21,5.5,-28.3,9752,-2.1,5.6,14.4,3.6
O=S(=O)(NC1CC1)c1cccc(S(=O)(=O)N2CCCC2)c1,-0.3,-1.0,3548,12.0,-0.1,nt,nt
CC(C)(C)C(=O)N1CCN(C(=O)c2ccco2)CC1,-7.2,-26.1,4025,-4.0,-3.4,-4.3,1.8

Grouped by structure: the compounds so far containing a COOH group
molecule,BJeLR viability,PrP UTR inh,Autofluor counter,Sa ugtP lethal,RN4220 kill,Mtb hypoxia rep growth,Mtb hypoxia rep
CC(=O)NC(Cc1ccc(N(CCCl)CCCl)cc1)C(=O)NCC(=O)NCC(=O)O (stereo not drawn),6.5,-6.1,4984,5.7,1.2,4.8,17.2
O=C(O)C1Cc2c([nH]c3ccccc23)C(c2ccc3c(c2)OCO3)N1 (stereo not drawn),-6.1,-14.4,15698,-12.8,4.1,13.9,0.8
O=C(O)CC1(CC(=O)Nc2ccc3ccccc3n2)CCCCC1,-12.6,-1.0,4561,4.3,7.9,-1.5,8.0

The listing continues.
molecule,BJeLR viability,PrP UTR inh,Autofluor counter,Sa ugtP lethal,RN4220 kill,Mtb hypoxia rep growth,Mtb hypoxia rep
O=c1c(C=NOCc2ccc(Cl)cc2Cl)c[nH]n1-c1cccc(Cl)n1,nt,nt,nt,53.2,48.9,-1.9,3.3
Cn1c(CNC(=O)CNC(=O)c2ccccc2F)cc(=O)n(C)c1=O,-0.5,-11.1,5501,1.7,0.1,7.6,6.4
Cn1c(CCNC(=O)c2ccccc2)nc2cc(NC(=O)C3CCCCC3)ccc21,-13.0,-1.7,18656*,1.0,2.0,5.6,5.9
CCOC(=O)N1CCN(S(=O)(=O)c2cc(Br)cc3c2N(C(=O)C2CC2)CC3)CC1,-6.9,-17.3,3734,3.5,4.4,9.4,3.3
COc1ccc(NC(=O)[C@@H](NC(N)=O)C(C)C)cc1Cl,9.1,-26.5,5015,-0.2,9.7,10.7,15.4
CN(C)c1nc(N(C)C)nc(N(C#N)CCOc2ccccc2)n1,-6.0,-15.0,3222,1.7,-11.6,1.4,12.0
CCOC(=O)C1=C(C)N=c2sc(=C3C(=O)Nc4ccccc43)c(=O)n2C1c1ccc(C)cc1 (stereo not drawn),nt,nt,nt,-11.2,-0.1,1.1,6.6
CCCn1c(NC(=O)c2ccco2)nc2ccccc21,-0.9,-19.1,8276,-6.4,5.1,-9.6,-7.8
O=[N+]([O-])c1ccc(Cl)c(CN2CCC(O)CC2)c1,-21.1,-26.1,2210,4.7,5.1,8.8,5.7
NNC(=O)Cn1c(-c2ccccc2)cc2ccccc21,-7.5,-19.1,3755,6.2,-1.4,-3.9,4.4
Cc1ccc(C(=O)NCCNC(=O)c2ccc(F)cc2)cn1,-2.2,-15.0,3908,nt,nt,nt,nt
